Marburg entry inh = inhibitors of Marburg virus binding or cell entry | Marburg virus pseudotyped entry inhibition, cell reporter; control for the full effect not named in the record; about a third of the inactives were read at about 46 µM | Potency, µM (series often up to 37.8 µM), for inactives: at the highest dose activity change, negative = inhibition, most hits filed as inhibitors | 300,000 compounds, 1.8% hits | AID 540276; active = well fitted inhibition curve with a large enough effect; inconclusive = small, poorly fitted or top-dose-only effect, or effect the other way; inactive = flat fitted curve, though single readings scatter; tested in HEK293 cells; about a fifth of its hits are not listed in these tables; further: on the % scale 0 is the no-effect control and ±100 the full control effect; luciferase read-out
Cruzain inh noDet = blocks cruzain activity in detergent-free assay; Potency, µM, for the others: max response, negative = inhibition, most hits filed as inhibitors; 200,000 compounds, 2.3% hits; purified cruzain, Z-FR-AMC fluorescence, no detergent; AID 1476; P25779;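 further: plate controls were enzyme without inhibitor for no effect and buffer without enzyme for full effect; nearly all actives have a fitted effect of over 40% in size; top concentration of the series not given in the record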
Target sequence (P25779 123-467 limits assumed): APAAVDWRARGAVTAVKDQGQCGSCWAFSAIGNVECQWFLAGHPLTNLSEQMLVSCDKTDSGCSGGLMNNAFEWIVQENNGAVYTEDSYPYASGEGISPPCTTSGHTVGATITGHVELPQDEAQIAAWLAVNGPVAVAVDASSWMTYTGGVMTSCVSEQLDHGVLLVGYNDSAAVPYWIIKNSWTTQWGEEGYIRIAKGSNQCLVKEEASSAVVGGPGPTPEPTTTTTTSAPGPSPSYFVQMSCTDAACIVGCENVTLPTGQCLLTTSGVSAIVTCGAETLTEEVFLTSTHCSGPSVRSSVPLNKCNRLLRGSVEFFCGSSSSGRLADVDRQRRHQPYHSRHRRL
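Purified cruzain at 1.5 nM, pre-incubated 15 min with compound at room temperature in 100 mM sodium acetate pH 5.5, 5 mM DTT, 0.00005% Triton X-100. Reaction started with 2 uM Z-FR-AMC; AMC fluorescence increase over 60 s gives rate.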
SARS PLP yeast = inhibitors of SARS-CoV papain-like protease in yeast | S. cerevisiae expressing SARS-CoV PLpro, growth rescue; control for the full effect not named in the record | Potency, µM (highest dose often 32.9 µM), for the others: at the highest dose activity, positive = growth rescue | 330,000 compounds, 0.19% hits | AID 485353; active means well fitted rising curve with a large enough effect; inconclusive means small, poorly fitted or top-dose-only effect; inactive means no such curve, though single readings can be large or run the other way; further: 0% is about no effect; nearly all actives have a fitted effect of over 55% in size; growth read by luminescence after 48 h
NS1 function inh = inhibitors of influenza NS1 protein function | S. cerevisiae slowed by influenza A NS1, growth recovery by OD600 | Potency, µM (top dose mostly 46.1 µM), inactives show at the top dose activity, positive = more growth | 270,000 compounds, 0.4% hits | AID 2326; active means well fitted rising curve with a large enough effect; inconclusive means small, poorly fitted or top-dose-only effect; inactive means no such curve, though single readings can be large or run the other way; further: nearly all actives have a fitted effect of over 50% in size
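Growth recovery, yeast-based: influenza A NS1 expressed in S. cerevisiae causes slow growth, and suppressors are detected by OD600. The parent strain without NS1 is used as positive control.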
Cruzain Triton = inhibitors of Trypanosoma cruzi cruzain with detergent; purified cruzain, Z-FR-AMC fluorescence, 0.01% Triton; AID 1478; Potency, µM, without a hit: max response, negative = inhibition, usual class: inhibitors; 200,000 compounds, 0.43% hits;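 further: plate controls were neutral wells for no effect and buffer without enzyme for full effect; nearly all actives have a fitted effect of over 40% in size; top concentration of the series not given in the record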
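Compounds were screened in titration against cruzain (1.5 nM) with 0.01% Triton X-100 to counter colloidal aggregation. Activity was the AMC fluorescence increase over 60 s after adding 2 uM Z-FR-AMC at pH 5.5.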
RE007 growth inh = less growth of the S. pombe RE007 Vpr strain; 360,000 compounds, 0.21% hits; Potency, µM (top dose mostly 92.2 µM), for inactives: top-dose activity change, negative = less growth; AID 651644; S. pombe RE007 Vpr strain, BacTiter-Glo ATP luminescence, 24 h; control for the full effect not named in the record; active = well fitted falling curve with a large enough effect; inconclusive = small, poorly fitted or top-dose-only effect; inactive = no such curve, though single readings can be large or run the other way;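 further: on the % scale 0 is the no-effect control and ±100 the full control effect; nearly all actives have a fitted effect of over 50% in size; the assay follows cell death caused by Vpr and the record does not say whether a fall means rescue or toxicity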
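Fission yeast strain RE007, carrying one chromosomally integrated HIV-1 vpr copy, was seeded at OD 0.01 in PMG+AL medium with 23 nL pinned compound. After 24 h at 30 °C and 99% humidity, viability was read by BacTiter-Glo luminescence.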
StopGo reporter = lowers the luciferase signal of an FMDV 2A StopGo reporter. AID 1159524. human cells with a luciferase reporter of 2A StopGo recoding; control for the full effect not named in the record. Potency, µM (titrated, usually from 57.9 µM), for the others: at the highest dose signal change, negative = less light. 410,000 compounds, 1.2% hits; active = well fitted falling curve with a large enough effect; inconclusive = small, poorly fitted or top-dose-only effect; inactive = no such curve, though single readings can be large or run the other way; tested in HEK293T cells; further: on the % scale 0 is the no-effect control and ±100 the full control effect; nearly all actives have a fitted effect of over 45% in size; luciferase light after 4 h
Lassa entry inh = blocks Lassa virus binding to or entry into cells | Lassa virus pseudotype entry inhibition, cell reporter; control for the full effect not named in the record | 300,000 compounds, 1.2% hits | Potency, µM (doses to about 37.9 µM), for inactives: at the top dose activity change, negative = inhibition, hits mostly inhibitors; active means well fitted inhibition curve with a large enough effect; inconclusive means small, poorly fitted or top-dose-only effect, or effect the other way; inactive means flat fitted curve, though single readings scatter; tested in HEK293 cells; further: on the % scale 0 is the no-effect control and ±100 the full control effect; nearly all actives have a fitted effect of over 50% in size; luciferase read-out
Numbers without * were called inactive; ? = inconclusive; / = no result given; [ ] = another dose, or the depositor's remark. Unless noted, the call rests on the fitted dose curve; in most records, active means well fitted curve in the direction sought with a large enough effect; inconclusive means small, poorly fitted or top-dose-only effect, or another doubt; inactive means no such curve, though single readings can be large; an effect the other way counts as inactive or inconclusive. Potency means the concentration at half of the fitted maximal effect. Not a hit list. About 4.6% of those tested had a hit in this group.

SMILES	Marburg entry inh	Cruzain inh noDet	SARS PLP yeast	NS1 function inh	Cruzain Triton	RE007 growth inh	StopGo reporter	Lassa entry inh
CSc1nc2sc3c(c2c(=O)n1-c1ccccc1C)CCCC3	/	-8%	/	/	-7.4%	/	0%	-28%[46.1 µM]
Cc1ccnc(N2C(=O)c3cccc4c([N+](=O)[O-])ccc(c34)C2=O)c1	21µM*	-26%	-38%	-35%	-2.1%	?	?	?
CC1=C(C(=O)Nc2ccc(C)cn2)C(c2cnn(C)c2)C2=C(CCCC2=O)N1 (stereo not given)	1%	-7%	3%	-1%	-8.9%	-2%	-7%	2%
CCOc1ccc(Nc2oc(-c3ccc(COc4ccc(OC)cc4)o3)nc2C#N)cc1	-25%[46.1 µM]	?	/	/	-3.8%	/	-20%	-2%[46.1 µM]
CC(C)NS(=O)(=O)c1ccc(OCC(=O)N2CCN(Cc3ccccc3)CC2)cc1	-1%	/	/	-9%	/	9%	/	0%
CCC(SC1=Nc2ccccc2C2=NC(CC(C)C)C(=O)N12)C(=O)Nc1ccc2c(c1)OCO2 (stereo not given)	?	-10%	6%	11%	-14%	-13%	33%[activator]	16%
CC(C)C(C)N(Cc1ccc(C(=O)O)cc1)C(=O)c1ccc2ccccc2n1 (stereo not given)	18%[46.1 µM]	/	/	/	/	5%	-9%	-2%[46.1 µM]
CCCC(=O)Nc1sc(Cc2ccccc2)c(C)c1C(N)=O	?	/	-6%	-7%	/	14%	-6%	-28%[46.1 µM]
O=C(NC(=S)Nc1nc2c(s1)CCCC2)c1ccccc1	?	5%	17%	?	-5.1%	/	23%	?
CCOC(=O)c1ccc(S(=O)(=O)N2CCN(C(=O)c3cc4ccccc4o3)CC2)cc1	-29%	/	-2%	/	/	5%	-25%	-24%
COc1ccc(Cl)cc1NC(=O)CN(C)C(=O)CN1C(=O)NC2(CCCC2)C1=O	?	/	-1%	/	/	2%	-13%	?
CC(=O)Nc1ccc(S(=O)(=O)NCCCCNS(=O)(=O)c2ccc(NC(C)=O)cc2)cc1	4%	/	1%	-2%	/	-11%	9%	27%
COc1ccc(NC(=O)Nc2cccc3ccccc23)cc1OC	/	/	1%	27%	/	-6%	-5%	/
COc1ccc(N(CC(=O)NCc2ccc(F)cc2)C(=O)CCC(=O)Nc2nccs2)cc1	-5%[46.1 µM]	/	2%	-3%	/	-7%	2%	-2%[46.1 µM]
CCOC(=O)N/N=C/c1ccccc1OCc1ccc(Cl)cc1	?	-6%	6%	-18%	-5.5%	0%	-11%	-9%
O=c1[nH]c2ccc(S(=O)(=O)N3CCCCC3)cc2o1	2%	-7%	-5%	-10%	-0.7%	-3%	13%	2%
Cc1ccc(S(=O)(=O)/C=C/c2ccccc2)cc1	14%	11%	-51%	-9%	-1.2%	14%	65%[activator]	5%
O=C(CN(C(=O)CCC(=O)Nc1nccs1)c1ccc(F)cc1)NCc1ccc(F)cc1	-22%[46.1 µM]	/	0%	8%	/	7%	-4%	-26%
CCn1c(SCC(=O)Nc2cc(C)on2)nnc1-c1ccc(S(=O)(=O)N2CCCC2)cc1	?	21%	0%	-8%	2.3%	-1%	-12%	-13%
S=c1[nH]nc(-c2ccccc2)n1/N=C/c1ccc(Cl)cc1	/	/	-2%	1%	/	4%	-8%	/
O=C(NCC(c1cccs1)N1CCOCC1)c1ccccc1NS(=O)(=O)c1ccc(Br)cc1 (stereo not given)	?	-27%	9%	-14%	-6.9%	-12%	?	-2%
CCc1cc(=O)oc2cc(C)cc(OCC(=O)N3CCC[C@@H]3C(=O)O)c12	/	/	1%	-12%	/	11%	-18%	/
O=C(Nc1ccccc1C(=O)N1CCCCC1)C1CCCCC1	?	7%	-1%	13%	1.3%	9%	-11%	2%
Cn1nc(-c2ccccc2)c(/C=N/O)c1Cl	2%[46.1 µM]	/	1%	/	/	32%	-10%	16%[46.1 µM]
Cc1cccc(Cn2cnc3c(nnn3Cc3ccccc3F)c2=O)c1	6%	-2%	2%	-3%	-5.8%	3%	?	?

Following part:
SMILES	Marburg entry inh	Cruzain inh noDet	SARS PLP yeast	NS1 function inh	Cruzain Triton	RE007 growth inh	StopGo reporter	Lassa entry inh
O=C(c1ccc(Br)cc1)C1CCc2occc2C1=O (stereo not given)	11%	-15%	-4%	-1%	-2.5%	-13%	4%	?
CCOC(=O)N1CCC(N2CCN(S(=O)(=O)CC)CC2)CC1	10%	-1%	-4%	-2%	9.7%	-1%	/	20%
COc1ccc(C(=O)Nc2ccc3c(c2)N(C)C(=O)c2ccccc2S3)cc1OC	/	?	/	/	-4.9%	/	?	?
O=C(Cc1ccc(NS(=O)(=O)c2ccc(F)cc2)cc1)NCc1ccccc1	-3%	-2%	8%	0%	1.5%	-12%	-18%	?
O=S(=O)(Nc1ncn[nH]1)c1ccc(Cl)cc1	?	2%	4%	-8%	2.5%	2%	-6%	-2%
COc1ccc2c(c1)C(c1cccs1)=NNC(c1cccnc1)=N2	-15%[46.1 µM]	/	-1%	18%	/	-15%	-10%	-8%[46.1 µM]
COc1cc2c(cc1[N+](=O)[O-])n(C(C)C)c(=O)n2C(C)C	/	/	0%	6%	/	-6%	-15%	/
Cc1cccc(NP2(=O)NCCCN2)c1	-14%[46.1 µM]	/	/	/	/	2%	-8%	3%[46.1 µM]
O=C(NC1=NCCS1)c1ccc(Cl)c(S(=O)(=O)N2CCCCC2)c1	-20%	-15%	-20%	-10%	-4.5%	2%	-17%	5%
COc1ccccc1CNC(=O)c1cc(C2CC2)nc2c1cnn2C(C)C	/	/	-1%	/	/	13%	-21%	-25%
Cc1cc(Cl)nc(-c2ccccc2)n1	/	/	-1%	0%	/	-16%	-17%	/
C#Cc1cccc(C(=O)N2CCCC(CCC(=O)NCc3ccccc3F)C2)c1 (stereo not given)	-2%	/	/	/	/	24%	19%	-14%
COc1ccc(CC(=O)NCc2nnc(SCC(=O)c3ccc(OC)cc3)n2C)cc1	-4%[46.1 µM]	/	1%	/	/	?	1%	3%[46.1 µM]
CCOc1ccc(NC(=O)CSc2nnc(-c3ccccn3)n2N)cc1	-5%	24%	6%	-1%	1.2%	4%	22%	-1%
O=C(CN1C(=O)c2ccc([N+](=O)[O-])cc2C1=O)NCc1ccc(C(=O)O)cc1	-21%	/	2%	4%	/	-3%	2%	?
COc1ccc(N2C(=O)NC(NS(=O)(=O)c3ccccc3)(C(F)(F)F)C2=O)cc1 (stereo not given)	6%	/	-5%	7%	/	52%	-20%	-1%
CN(C(=O)CN1CCC(NC(=O)c2ccccc2Br)CC1)C1CCCCC1	24%[46.1 µM]	/	0%	-3%	/	-9%	29%	8%[46.1 µM]
O=C(O)c1ccccc1Oc1ccc(Oc2ccccc2)cc1	/	/	13%	-69%	/	27%	10%	/
CCn1c(SCc2cccnc2)nnc1-c1c[nH]c2ccccc12	/	-2%	4%	-2%	5.1%	-11%	-17%	/
COc1ccc(OC(=O)COc2cccc(C)c2)cc1	0%[46.1 µM]	/	-1%	-10%	/	16%	-15%	-2%[46.1 µM]
COCCOC(=O)C1=C(C)NC(=O)NC1c1c(OC)ncnc1OC (stereo not given)	-12%	-7%	-5%	2%	-0.6%	-4%	-16%	0%
COC(=O)c1sc(-c2ccccc2)cc1NC(=O)C1CC1	?	/	2%	/	/	35%	-15%	21%
Cc1oc(-c2ccccc2Cl)nc1CSc1nncn2c1cc1occc12	/	-1%	/	/	-1.1%	/	-16%	22%[46.1 µM]
CC(=O)Nc1ccc(OCC(O)Cn2ccnc2C)cc1 (stereo not given)	14%	/	-1%	1%	/	-13%	?	?
Cc1nc(SC(C)C(=O)Nc2cccc(C(F)(F)F)c2)c2c(C)c(C(=O)O)sc2n1 (stereo not given)	/	/	2%	-3%	/	12%	-18%	/

Other structures
SMILES	Marburg entry inh	Cruzain inh noDet	SARS PLP yeast	NS1 function inh	Cruzain Triton	RE007 growth inh	StopGo reporter	Lassa entry inh
CCc1ccc(NC(=O)CSc2nc3cc(C(=O)OC)ccc3c(=O)n2CC2CCCO2)cc1 (stereo not given)	?	?	-1%	7%	2.3%	1%[3.69 µM]	-8%	-29%
COc1cccc(-c2csc(N3CCN(C(=S)Nc4cccc(Cl)c4)CC3)n2)c1	?	?	-6%	5%	5.6%	10%	/	?
Cc1c(C(=O)N2CCOCC2)sc(NC(=O)c2ccc3c(c2)OCO3)c1C#N	?	-4%	15%	-26%	-2.4%	-3%	/	14%
Cc1ccc(S(=O)(=O)Nc2c(C)cc([N+](=O)[O-])cc2C)cc1	-3%	/	/	/	/	-13%	?	0%
CCOC(=O)COc1ccc2c(=O)c(-c3ccccc3OC)coc2c1	8%[46.1 µM]	/	-2%	-3%	/	14%	-9%	4%
O=C(CCc1nnc2ccc(NCc3ccco3)nn12)Nc1cc(F)ccc1F	/	/	7%	22%	/	3%	-7%	/
N#Cc1c(N)n(CCNC(=O)c2ccc(Cl)cc2)c2nc3ccccc3nc12	-3%	9%	-3%	1%	-4.1%	-14%	-20%	3%
O=C(NNC1CC(=O)N(c2ccc(F)cc2)C1=O)c1cccnc1 (stereo not given)	10%	/	-1%	1%	/	7%	3%	-7%
O=C(CSCc1cccc(Cl)c1)Nc1ccccc1-c1ccccc1	?	-5%	-40%	-7%	-6.7%	4%	-28%	4%
c1ccc(OCCCn2ccnc2)cc1	4%[46.1 µM]	/	1%	16%	/	0%	-15%	3%[46.1 µM]
O=C(CN1CCN(c2ccccn2)CC1)Nc1cc(C(F)(F)F)ccc1Cl	-24%	2%	-8%	-30%	-3.0%	-6%	?	?
CC(C)(C)c1ccc(NC(=S)NCc2cccnc2)cc1	/	/	0%	-5%	/	10%	3%	/
CC(=O)c1ccc(N2CCN(C(=O)CCCn3c(=S)[nH]c4cc5c(cc4c3=O)OCO5)CC2)cc1	?	?	-7%	?	-1.3%	3%	-21%	?
CCCCCCC(=O)NNC(=O)CC(=O)Nc1ccccc1C(=O)O	?	-3%	6%	6%	1.6%	-5%	-12%	?
COc1ccc(-n2cc(-c3ccccc3)c3c(N4CC(C)OC(C)C4)ncnc32)cc1 (stereo not given)	?	/	-11%	/	/	-14%	22µM*	?

Bioassay records deposited in PubChem BioAssay by National Center for Advancing Translational Sciences (NCATS).
